# Source: PubChem (several laboratories)
# Vif TR-FRET – inhibitors of Vif binding to APOBEC3G peptide, primary screen, biochemical, TR-FRET, GST-Vif 1-94, biotin-A3G peptide, dose response retest (AID 1117319); inhibition, %, or IC50 in µM where a hit was titrated; TR-FRET GST-Vif / biotin-A3G peptide binding; higher % means a stronger effect; test concentration not given here; strong numbers were not always called active; 260,000 tested, 0.57% active;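 active means above the screen mean plus three standard deviations and confirmed in dose response; inconclusive means results disagree or hit not tested in dose response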;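 further: Vif residues 1-94 fused to GST binding biotinylated APOBEC3G peptide 110-148; 0% = full assay without inhibitor and 100% = GST in place of GST-Vif; retest series ran down from 100 µM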
# Beta cell apopt – beta cell apoptosis inhibition | INS-1E cytokine-induced death, ATP luminescence, 48 h; percent of positive-control rescue, neutral wells zero | protection from apoptosis, % (no concentration beside the values) | 300,000 tested, 0.8% active | AID 435005;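 active means all replicates at 75% or more, or half of them and the mean; inconclusive means half reach 75% but not the mean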;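 further: 0% = cytokine-treated negative control wells and 100% = positive control rescue; higher means more ATP so stronger rescue from cytokine killing; wells of about 40 µL received 100 nL stock; the first replicate is given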
# T cruzi inh – T. cruzi replication inhibition; T. cruzi beta-gal in NIH3T3, luminescence, 90 h; inhibition, % (no concentration beside the values); 300,000 tested, 1.4% active;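 active means mean inhibition across valid replicates above about 55%, limit read from the data; inconclusive means mean below that limit but half or more replicates reach it; inactive means mean below it, under half of replicates reach it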;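 further: signal also drops with host cell toxicity which is not excluded here; 0% = plate median of DMSO wells and 100% = zero luminescence signal; higher percent means less beta-gal luminescence so fewer parasites; stock transfer was 50 nL into about 50 µL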
# AF4-AF9 inh – inhibitors of human MLL-AF4/AF9 interaction. AlphaScreen, biotin-AF4 peptide binding to FLAG-AF9. P42568. AID 651704. 350,000 tested, 0.47% active. inhibition, % at 10 µM;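 active means every replicate reaching a set inhibition limit, whatever the replicate mean, cut at about 25% in these data; inconclusive means mean inhibition reaches that limit but some replicates miss it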;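 further: 0% = plate neutral control median and 100% = total signal loss; the record names both 10 and 1 µM as test concentration; the first replicate is given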
# Target sequence (P42568 whole entry, looked up): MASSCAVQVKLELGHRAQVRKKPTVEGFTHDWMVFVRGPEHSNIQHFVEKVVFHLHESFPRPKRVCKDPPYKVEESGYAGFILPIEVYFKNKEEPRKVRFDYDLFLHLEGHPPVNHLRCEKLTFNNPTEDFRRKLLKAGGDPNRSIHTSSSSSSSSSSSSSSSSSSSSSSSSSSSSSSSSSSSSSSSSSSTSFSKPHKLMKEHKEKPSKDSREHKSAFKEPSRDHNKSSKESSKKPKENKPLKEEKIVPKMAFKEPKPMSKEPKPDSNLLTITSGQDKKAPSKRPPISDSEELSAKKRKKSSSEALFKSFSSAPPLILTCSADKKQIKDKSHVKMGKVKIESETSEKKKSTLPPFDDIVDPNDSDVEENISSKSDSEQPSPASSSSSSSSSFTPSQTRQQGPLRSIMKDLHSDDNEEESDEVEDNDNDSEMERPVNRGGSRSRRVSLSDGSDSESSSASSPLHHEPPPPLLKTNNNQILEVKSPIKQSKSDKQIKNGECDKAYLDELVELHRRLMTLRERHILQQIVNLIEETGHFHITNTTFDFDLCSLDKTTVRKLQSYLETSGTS
# Bfl-1 A1 inh – inhibitors of the anti-apoptotic protein A1, read as caspase activation; MEF A1-2A-BIM cells, Caspase-Glo 3/7 luminescence, 3 h; percent of clofoctol response, vehicle zero; caspase activation, % (concentration not given with the values); 330,000 tested, 0.066% active; AID 2462;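 active means over half of replicate activation scores above 10%, or exactly half above 10 with the replicate mean above 10; inconclusive means replicate mean below 10 yet half the replicates above 10; inactive means over half of replicates below 10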;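 further: wells of about 30 µL received 50 nL stock; many hits fall short of the cut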
# Calb FLC – C. albicans growth modulation with fluconazole | C. albicans CaCi-2 (fluconazole-resistant clinical isolate) + fluconazole, Alamar Blue growth, 48 h | growth inhibition, % (test concentration not listed) | 300,000 tested, 0.57% active;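 active means most replicates above 75%; inconclusive means exactly half above 75%; inactive means most below 75%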;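 further: all wells also contain fluconazole at 8 µg/ml as a sub-toxic cotreatment; 0% = median of DMSO wells and 100% = median of geldanamycin control wells; wells of about 8 µL received 7.5 nL stock; the first replicate is given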
# RanGTP-Imp inh – disruptors of Ran-importin-beta complex formation – biochemical, FRET, CFP-Ran, YFP-importin-beta, homogeneous, primary screen. cell-free CFP-Ran/YFP-importin-beta FRET ratio. inhibition, % (concentration not given with the values). 300,000 tested, 1.1% active;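 active means most replicates above 15%; inconclusive means exactly half above 15%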;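 further: 0% = DMSO wells and 100% = Ran loaded with GDP instead of GTP; wells of about 40 µL received 100 nL stock; the first replicate is given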
# rRNA inh HTS – inhibits bacterial ribosomal RNA function over humanized ribosomes; 350,000 tested, 1.6% active; GFP signal change (wild-type ribosome), % (concentration not given with the values); E. coli WT GFP vs humanized-ribosome RFP mutants, fluorescence, 24 h; active compounds read low; DMSO median 0, no signal -100; AID 720706;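 active means significant combined selectivity score with lowered wild-type GFP, culture density cut under 30%, mutant RFP and density less affected; inactive means any of these conditions unmet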; further: one replicate is shown; some compounds called inactive have numbers as strong as hits
# rRNA inh HTS OD600 – further read-out of rRNA inh HTS, marked with its call; OD600 change, %; measured here: OD600 growth;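 optical density of the mix in the first replicate; 0 = DMSO median and -100 = no signal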
# rRNA inh HTS RFP – further read-out of rRNA inh HTS, marked with its call; RFP signal change, %; measured here: RFP humanized mutant strains;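 first replicate; 0 = DMSO median and -100 = no signal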
# * marks the source's active call; other numbers are inactive results; ? = inconclusive; . = not tested or not shown.
SMILES,Vif TR-FRET,Beta cell apopt,T cruzi inh,AF4-AF9 inh,Bfl-1 A1 inh,Calb FLC,RanGTP-Imp inh,rRNA inh HTS,rRNA inh HTS OD600,rRNA inh HTS RFP
CC(=O)N/C(=N\c1nc(C)cc(C)n1)Nc1ccccc1Cl,1%,.,-8,0.7,.,12,8.3,-1,5,1.7
Cc1ccc(S(=O)(=O)N2CCC(=O)N(C(COCc3ccc(C(F)(F)F)cc3)C(C)C)CC2)cc1 (stereo not given),-6%,13,18,.,-1.2,14,?,.,.,.
COc1ccc(CNC(=O)CCCn2ccc3cc(S(=O)(=O)N4CCCC4)ccc32)cc1,.,8,9,-9.1,-0.5,-5,-3.9,-2,-13,-2.8
O=C(CN1C(=O)CCOc2ccccc21)Nc1ccc(Cl)c(S(=O)(=O)N2CCOCC2)c1,-5%,1,.,3.6,-0.2,.,.,1,4,4.1
Nc1ccc(S(=O)(=O)Nc2nccc(/C=C/c3ccc([N+](=O)[O-])cc3)n2)cc1,.,-4,1,1.7,1.1,3,0.1,5,1,0.2
COc1cc2[nH]c(C(=O)N(C)Cc3ccccc3)cc2c(OC)c1OC,.,-1,1,3.0,-0.6,4,7.0,-16,-25,-2.8
Nc1ccc(Nc2nc(-c3cc4ccccc4oc3=O)cs2)cc1,-5%,6,23,3.8,-0.5,7,2.4,4,2,-3.4
CCCSC(=S)c1c(C)[nH]n(-c2ccccc2)c1=O,4%,29,-40,0.9,0.2,5,-4.9,-50,-55,-15
CC(NC(=O)CSc1nc2c(cc1C#N)CN(C)CC2)c1ccccc1 (stereo not given),22%,-3,2,.,-0.3,?,6.5,.,.,.
O=C1c2ccccc2N2C(=O)c3ccccc3C2N1O (stereo not given),1%,5,7,.,0.7,42,3.5,.,.,.
C[C@@H](C(=O)NC1CCN(Cc2ccccc2)CC1)N1C(=O)N2CCc3c([nH]c4ccccc34)[C@@]2(C)C1=O,.,8,59*,15,0.6,-1,-2.3,.,.,.
CCOC(=O)CSc1nc(C)c(C(C)=O)cc1C#N,-7%,5,0,.,1.8,0,-1.6,.,.,.
Cc1ccc(Cc2cnc(N3C(=N)SC(c4ccccc4)C3=O)s2)cc1 (stereo not given),7%,0,-26,.,-0.7,0,0.8,.,.,.
Cc1cc(NC(=S)N(Cc2cccc(Br)c2)CC2CCC(C(=O)O)CC2)ccc1Cl (stereo not given),.,.,-10,-1.4,.,1,1.8,-1,16,16
Cc1cccc(Cn2c(N(C)Cc3ccccc3)nc3c2c(=O)[nH]c(=O)n3C)c1,14%,4,14,-4.1,0.4,4,-0.1,1,-1,-0.7
CCCOCC(O)CC(Cc1ccccc1)C(=O)NN (stereo not given),.,4,-11,0.5,-0.6,-13,0.1,8,2,0.1
CC1(C)CC(=O)C(/C=N/n2c(C(F)(F)F)nc3ccccc3c2=O)=C(O)C1,1%,2,-8,-3.5,0.9,-1,1.5,4,-4,1.6
CCn1c(SCC(=O)N(C)C2CCS(=O)(=O)C2)nnc1-c1ccccc1 (stereo not given),4%,-13,-4,1.0,0.5,26,1.8,25,21,0.9
COc1ccc(COC(=O)N/N=C(\C)CC(=O)Nc2ccc(Cl)cc2)cc1,-1%,-2,-11,2.8,0.1,-9,-2.8,-10,9,3.3
CCNc1nc(NCC)nc(N/N=C/c2ccc(O)c(OC)c2)n1,?,-4,-5,-16,0.2,2,-1.0,6,1,0.3
CCCCc1nnc(NC(=O)c2ccc(-n3cncn3)c([N+](=O)[O-])c2)s1,4%,4,10,-14,?,18,0.0,1,2,-2.1
Nc1ccc2nn(-c3cccc4ccccc34)nc2c1,-3%,75*,6,.,0.6,2,3.9,.,.,.
COc1ccc(-c2ccc(NCCC3=CCCCC3)nn2)cc1OC,16%,3,13,-5.0,-2.2,12,-2.5,-1,13,17
CCOC(=O)/C(C#N)=C\c1cn(C)c2ccccc12,.,-1,10,11,0.6,2,6.7,-18,-8,-7.0
CSc1ccccc1NC(=O)CN(C)C(=O)c1cccc(S(=O)(=O)N(C)C)c1,-1%,-1,-1,-2.2,1.3,-3,.,14,6,2.9
Cc1c(Cl)ccc2c1NC(=O)[C@]21N[C@@H](CCC(N)=O)[C@H]2C(=O)N(c3ccc(F)cc3)C(=O)[C@H]21,1%,-5,-9,.,0.5,5,0.8,.,.,.
O=C1Nc2ccccc2C(=O)N2CCCCC12 (stereo not given),5%,2,-13,-1.9,0.4,-4,2.9,12,19,-18
Cc1ccsc1/C=N/NC(=O)C1CC(=O)N(c2ccccc2)C1 (stereo not given),.,6,?,-3.2,1.7,-5,3.7,2,-1,0.4
COc1ccc(/C=C/C=C2\NC(=S)NC2=O)cc1,.,5,-13,-4.9,-4.9,3,-2.3,-5,-5,4.0
O=C(Cc1ccccc1)Nn1c(-c2ccccc2)nc2ccccc2c1=O,.,3,-11,-4.7,0.4,-23,-6.2,10,15,0.1
COc1ccc(CCN(C)C(=O)Cn2c(=O)oc3ccccc32)cc1OC,.,-1,-12,0.6,-0.6,6,?,4,4,-2.5
Cc1ccc(C(=O)N2CCN(C(=O)CN3CCOCC3)C2)cc1,-2%,-5,-4,.,-0.5,-4,?,.,.,.
CCOC(=O)c1snc(C(=O)NC2CCCCC2)c1N,-1%,1,-21,9.2,-3.0,-20,0.8,-47,-72,-26
Cc1ccccc1NS(=O)(=O)c1ccc(C(=O)NN2CCCCC2)cc1,1%,-5,0,-0.6,1.8,-8,?,4,-12,-0.8
CC1CN(C(=O)c2ccc(COc3ccccc3Cl)o2)CC(C)O1 (stereo not given),.,-1,16,3.2,0.6,8,6.6,-11,4,-0.8
COc1ccc([C@H]2CC(=O)C=C(c3ccc(C)cc3)C2)cc1OC,.,-4,.,6.4,-1.5,.,.,-20,-40,-13
Cc1ccc(C)c(N2CCN(S(=O)(=O)CC34CCC(CC3=O)C4(C)C)CC2)c1 (stereo not given),.,-5,19,-1.2,0.0,7,2.6,-18,-28,1.1
Cc1nn(C)cc1CN(C)C(=O)c1cc(COc2ccc(F)cc2F)on1,-2%,1,-3,-2.1,0.6,-1,-3.7,10,0,0.3
COc1cccc(NC(=O)CN(C)C(=O)CN2C(=O)NC3(CCCC3)C2=O)c1,3%,-3,-12,-19,0.7,8,-0.4,4,7,-0.5
C=CCn1c(SCC(=O)Nc2nnc(CC)s2)nnc1-c1ccncc1,-3%,3,-3,-4.1,0.6,-2,4.3,11,8,1.8

# Structural class, the compounds so far with a nitro group on carbon.
SMILES,Vif TR-FRET,Beta cell apopt,T cruzi inh,AF4-AF9 inh,Bfl-1 A1 inh,Calb FLC,RanGTP-Imp inh,rRNA inh HTS,rRNA inh HTS OD600,rRNA inh HTS RFP
Nc1ccc(S(=O)(=O)Nc2nccc(/C=C/c3ccc([N+](=O)[O-])cc3)n2)cc1,.,-4,1,1.7,1.1,3,0.1,5,1,0.2
CCCCc1nnc(NC(=O)c2ccc(-n3cncn3)c([N+](=O)[O-])c2)s1,4%,4,10,-14,?,18,0.0,1,2,-2.1

# More structures follow:
SMILES,Vif TR-FRET,Beta cell apopt,T cruzi inh,AF4-AF9 inh,Bfl-1 A1 inh,Calb FLC,RanGTP-Imp inh,rRNA inh HTS,rRNA inh HTS OD600,rRNA inh HTS RFP
Cc1cccc(CC2SC(N)=NC2=O)c1 (stereo not given),11%,-13,8,-10,-0.1,-7,4.0,5,3,13
Cc1ccc(NS(=O)(=O)c2ccc3[nH]c(=O)sc3c2)cc1,.,-3,-15,-1.7,0.3,-41,7.1,-52,-75,-14
O=C(C[C@@H]1C/C=C/CC[C@H](Cc2ccc(F)cc2)C(=O)OC[C@@H](Cc2ccccc2)NC1=O)N[C@H](CO)Cc1ccccc1,.,124*,.,-5.3,1.7,.,.,2,-2,-0.6
COC(=O)C1=C(C)N(CCCC(=O)O)C(=O)NC1c1ccc(Br)cc1 (stereo not given),.,-5,?,-1.5,-0.8,-12,3.2,-19,-14,-3.1
COc1ccc(CNS(=O)(=O)CCNC(=O)c2ccccc2)cc1,12%,-6,-8,-16,-0.8,1,6.1,9,15,0.1
Cc1cc(SCc2ccccc2)nc(=O)[nH]1,-7%,-3,2,.,-0.8,-15,0.7,.,.,.
Fc1ccc(CNCc2ccc3c(c2)OCO3)cc1,.,-3,10,3.7,-0.3,-17,0.3,6,-2,0.5
COc1ccc(CN(C)CC(O)COc2ccc(C(=O)c3ccccc3)cc2)c(OC)c1OC (stereo not given),.,-1,26,8.2,1.5,-9,3.6,0,-9,7.2
N#CC1=C2SCC(O)(c3ccccc3)N2C(=O)CC1c1ccccc1F (stereo not given),6%,30,20,.,0.2,9,-5.1,.,.,.
Cn1cc(C(=O)CCl)c2ccccc21,?,.,47,0.6,.,59,2.1,18,9,0.5
CCc1ccc(NC(=O)CSC2=C(C#N)C(c3ccco3)C3=C(CCCC3=O)N2)cc1 (stereo not given),5%,-8,19,.,0.2,1,-1.4,.,.,.
NS(=O)(=O)c1ccc(N/C=C/C(=O)c2ccc(Br)cc2)cc1,.,2,2,1.0,-0.5,19,?,-2,2,-8.0
O=c1c(-c2ccc(O)cc2)coc2c(C3O[C@H](CO)[C@@H](O)[C@H](O)[C@H]3O)c(O)ccc12 (stereo not given in full),2%,-3,-3,-3.6,-1.8,13,0.2,23,8,1.3
CCCOc1ccccc1Cn1c(=O)oc2ccccc21,-3%,.,25,-1.9,0.6,1,0.7,-25,-34,-6.0
O=C(CN1CCOCC1)Nc1ccc(OC(F)(F)F)cc1,1%,.,-12,-2.3,0.7,2,-0.7,17,16,1.0
Cc1c(C)c2ccc(OCC(=O)N[C@@H](Cc3ccccc3)C(=O)O)cc2oc1=O,.,-4,-8,-2.5,0.4,1,5.4,6,4,5.1
O=C(NCc1ccc(Cl)cc1)C1CCCN1C(=O)Nc1ccc(F)cc1 (stereo not given),-17%,.,-7,-3.8,-0.3,-4,-3.5,10,11,-0.3
COC1=CC(=O)CC(C)C12Oc1cc(OC)cc(OC)c1C2=O (stereo not given),.,.,-10,6.7,-0.4,-2,6.5,.,.,.
CN1C=CC=C/C1=C1/N=C(c2ccccc2)OC1=O,-7%,-5,-1,-2.6,0.4,-1,0.3,18,10,-0.4
COc1ccc(S(=O)(=O)Nc2nnc(CC(C)(C)C)s2)cc1,.,3,4,-3.5,0.7,-1,-0.4,-10,-10,-6.3
CCOc1ccccc1C(=O)N(Cc1cccs1)C1CCS(=O)(=O)C1 (stereo not given),1%,-4,-4,.,-0.1,1,-3.3,.,.,.

# Only part of the results is shown, so the mix of outcomes need not match the whole.
